YopH inh = YopH tyrosine phosphatase inhibitors, primary screen, biochemical, fluorescence Ex485/Em525; YopH tyrosine phosphatase [Yersinia enterocolitica]; 0.16% of 140,000 active; AID 898, 2007; inhibition, %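 (about 10 µM by stock and volumes)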;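 active = inhibition of 50% or more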;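 also: controls were vehicle for no effect and minimum signal wells for full effect; inactives centre near -20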
Arbovirus inh = antivirals against arbovirus infection, primary screen, cell-based, full library, 10K replicate subset | inhibition, % at 10 µM | AID 1251, 2008 | arbovirus infection cell-based antiviral screen | 0.37% of 200,000 active;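 active = inhibition from about 30%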;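 also: bluetongue infection of BSR cells; cell survival read as ATP light after 72 h; 0% = infected wells without compound and 100% = uninfected wells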
Mtb H37Rv = M. tuberculosis H37Rv growth inhibitors, H37Rv strain (AID 1626). M. tuberculosis H37Rv growth inhibition; higher % means a stronger effect. inhibition, % at 10 µM; hits with a dose series show IC50 in µM. 0.95% of 220,000 active;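 active = confirmed in a dose series; inconclusive = inhibition above 80% but not taken into the dose series; inactive = below 80% or under 30% at every dose of the series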;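 also: bacteria incubated seven days before Alamar blue readout; 0% = bacteria only wells and 100% = bacteria with antibiotic wells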
RecA intein inh = Mtb RecA intein splicing inhibitors, primary screen, biochemical, fluorescence, HTS | AID 2221, 2009 | inhibition, %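 (about 9 µM by stock and volumes)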 | cell-free RecA intein splicing | 0.75% of 290,000 active | Protein RecA (Mycobacterium tuberculosis (strain ATCC 25618 / H37Rv)), P9WHJ3; in the data active = inhibition above about 30%; inconclusive = no clear call, values can overlap the other calls;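 also: 0% = vehicle wells and 100% = reference inhibitor control wells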
Target sequence (P9WHJ3 whole entry, looked up): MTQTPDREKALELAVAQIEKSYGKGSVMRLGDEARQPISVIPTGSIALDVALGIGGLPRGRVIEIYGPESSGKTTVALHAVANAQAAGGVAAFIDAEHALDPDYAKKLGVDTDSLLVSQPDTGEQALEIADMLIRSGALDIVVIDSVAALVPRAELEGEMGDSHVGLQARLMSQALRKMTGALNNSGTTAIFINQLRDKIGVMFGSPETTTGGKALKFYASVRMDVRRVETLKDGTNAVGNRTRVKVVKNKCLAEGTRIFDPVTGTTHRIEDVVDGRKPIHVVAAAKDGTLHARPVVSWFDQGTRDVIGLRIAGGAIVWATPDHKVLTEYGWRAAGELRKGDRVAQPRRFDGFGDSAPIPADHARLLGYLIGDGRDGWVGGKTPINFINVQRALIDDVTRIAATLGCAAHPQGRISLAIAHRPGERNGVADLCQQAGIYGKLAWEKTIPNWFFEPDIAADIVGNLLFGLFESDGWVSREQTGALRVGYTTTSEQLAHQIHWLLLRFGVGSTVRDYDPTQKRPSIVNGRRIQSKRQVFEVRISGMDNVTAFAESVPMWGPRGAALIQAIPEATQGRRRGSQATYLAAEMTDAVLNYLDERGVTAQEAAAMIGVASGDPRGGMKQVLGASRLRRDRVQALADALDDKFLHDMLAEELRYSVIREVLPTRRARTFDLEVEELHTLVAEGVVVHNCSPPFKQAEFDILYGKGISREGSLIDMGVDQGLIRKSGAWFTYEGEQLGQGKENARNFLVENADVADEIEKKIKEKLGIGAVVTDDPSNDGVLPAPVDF
Mtb bLac sens = beta-lactam sensitization of Mtb H37Rv, H37Rv. M. tuberculosis H37Rv growth with meropenem, percent inhibition; hits of this screen are not shown here. inhibition, % at 25 µM. 0.27% of 330,000 active;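 active = about 74% or more and at least 40 points above the plate without the antibiotic, then above 30% in a dose series; inconclusive = first-round hits that could not be retested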;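 also: growth measured after seven days incubation then overnight dye step; 0% = bacteria only wells and 100% = bacteria with antibiotic; twin plates without the antibiotic show which effects depend on it; some results filed as inactive read as strong as hits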
Arbovirus inh repeat = recorded beside Arbovirus inh, whose call it bears; inhibition, %; measured here: 10K subset replicate screen; many hits read low in the repeat;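 first of two repeat runs on a subset; 0% = infected and 100% = uninfected wells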
An asterisk follows results filed as active; ? = inconclusive; nt = not tested or not shown.

SMILES | YopH inh | Arbovirus inh | Mtb H37Rv | RecA intein inh | Mtb bLac sens | others
COc1ccccc1CN1CCN(Cc2ccc3ccccc3c2)CC1 | nt | nt | nt | -0.4 | 2
Cn1c(=O)c2c(ncn2CC(=O)Nc2ccccc2)n(C)c1=O | 4 | -2 | 12% | -5.5 | -4
O=c1[nH]c(SCCOc2cccc3ccccc23)nc2ccccc12 | nt | -3 | 3% | 1.0 | -1
CSc1nc2sc3c(c2c(=O)n1C)CCCC3 | -31 | 4 | -8% | 0.6 | 3 | Arbovirus inh repeat=0
COc1cccc(-n2c(CN3CCOCC3)nc3ccc([N+](=O)[O-])cc3c2=O)c1 | nt | nt | nt | -0.8 | -2
COc1ccc(C2=NN(C(=O)c3ccco3)C(c3cc4ccccc4nc3Cl)C2)cc1 (stereo unspecified) | nt | nt | 3% | -1.9 | 33
COc1ccccc1NCCC(=O)OCC(=O)NC1CCCCCC1 | -29 | 0 | -6% | 0.2 | 0
CCn1c(SCc2ccc(C#N)cc2)nnc1-c1ccc(S(=O)(=O)N2CCCCC2)cc1 | -17 | 1 | -8% | 2.7 | -3
CCNC(=O)C1CN(S(=O)(=O)c2ccccc2)CCN1S(=O)(=O)c1ccccc1 (stereo unspecified) | -46 | 7 | -12% | -2.0 | -5
CC(C)Cn1c(N2CCN(C(=O)c3cccs3)CC2)nc2ccccc21 | -10 | 9 | -13% | 1.7 | -5
Cc1cc(N2CCOCC2)ccc1/C=C1\NC(=O)N(CC(=O)Nc2ccccc2C)C1=O | -21 | 2 | nt | -5.1 | ?
Cc1oc(CSCCSCc2cc(C(=O)O)c(C)o2)cc1C(=O)O | nt | nt | nt | 0.3 | 7

Brought forward from above: 2 compounds, followed by the next part.
SMILES | YopH inh | Arbovirus inh | Mtb H37Rv | RecA intein inh | Mtb bLac sens | others
Cc1cc(N2CCOCC2)ccc1/C=C1\NC(=O)N(CC(=O)Nc2ccccc2C)C1=O | -21 | 2 | nt | -5.1 | ?
Cc1oc(CSCCSCc2cc(C(=O)O)c(C)o2)cc1C(=O)O | nt | nt | nt | 0.3 | 7
COC(=O)Cn1cc(C(=O)c2ccco2)c2ccccc21 | -51 | -1 | -2% | -3.3 | -10
O=C1CCCN1CCNC(=S)Nc1ccccc1 | -17 | 3 | -9% | -2.7 | 1
COc1cc(CNC(C)c2ccccc2)cc(Cl)c1OCC(=O)Nc1ccccc1 (stereo unspecified) | nt | 7 | 3.1µM* | 2.8 | 99
CC(C)CCN(CC(=O)NCc1ccc(F)cc1)S(=O)(=O)c1ccccc1F | nt | nt | nt | 8.3 | 0
CC1C[C@@]2(NC(=O)NC2=O)C(C)CN1C (stereo partly specified) | -24 | 5 | 4% | -0.6 | -14
Cn1c([N+](=O)[O-])cnc1N1CCN(c2nncs2)C1=O | nt | nt | -2% | 1.9 | -1
CC1=CCC(C(=O)O)C(C(=O)NC2CCCCC2)C1 (stereo unspecified) | nt | nt | nt | 0.8 | -4
CC(=C/c1ccco1)/C=N/NC(=O)Cc1cccn1C | 13 | 0 | -11% | 5.0 | 2
Cc1cccc(-n2c(Cc3cc(=O)[nH]c(=O)[nH]3)nnc2SCC(=O)N2CCCCC2)c1 | -50 | 6 | nt | -5.0 | 1 | Arbovirus inh repeat=1
Cc1ccc(N2CCN(C(=O)c3ccccc3NC(=O)c3ccccc3C(=O)O)CC2)cc1 | -23 | 7 | 1% | -3.0 | 1
O=C(CCCN1C(=O)c2cccc3cccc(c23)C1=O)N1CCN(Cc2ccc3c(c2)OCO3)CC1 | -1 | -10 | -1% | nt | 3
CC(C)C(=O)N1CCC2(CC1)Oc1ccc(Cl)cc1C(=O)C21CC(c2ccc(Cl)cc2)=NO1 (stereo unspecified) | nt | nt | 16% | 5.1 | 87
COc1ccc(OC)c(NC(=O)CSc2nnc(CNC(=O)c3cc(OC)c(OC)c(OC)c3)o2)c1 | nt | nt | nt | 5.1 | -1
O=[N+]([O-])c1ccc(-c2ccc(/C=N/O)o2)cc1 | nt | nt | >100µM* | 3.6 | 87
COc1ccc(S(=O)(=O)N(CCCN2CCCC2=O)Cc2cc3c(C)cc(C)cc3[nH]c2=O)cc1 | -31 | -6 | 12% | nt | nt
O=S(=O)(c1ccc(-c2csc(=Nc3ccccc3)n2CCCN2CCOCC2)cc1)N1CCOCC1 | -11 | 13 | 3% | 1.5 | 11
COc1ccc(NC(=O)CN(c2ccc(C)cc2)S(=O)(=O)c2c(C)nn(C)c2C)cc1OC | -37 | -7 | -3% | -0.4 | 6
O=C(CN1C(=O)c2ccccc2S1(=O)=O)c1ccc2c(c1)OCCCO2 | nt | nt | nt | -0.2 | -5
O=C(Cc1ccsc1-c1ccccc1)NO | -17 | -31 | 32% | 2.3 | 79
CC(C)Sc1nc2c(c(=O)n1-c1ccc(F)cc1)SCC2 | 10 | -3 | -9% | 5.9 | 9 | Arbovirus inh repeat=0
Nc1c(Cl)ncnc1N/N=C/c1cccc(O)c1 | nt | nt | 5% | -8.3 | 3
O=[N+]([O-])c1cccnc1Oc1ccc(F)cc1 | nt | nt | 2% | -2.3 | -1
O=C(COc1cc2oc(=O)cc(-c3ccccc3)c2cc1Cl)NC(Cc1c[nH]c2ccc(O)cc12)C(=O)O (stereo unspecified) | nt | nt | nt | -8.5 | -5
CCN(C(=O)Cn1c(=O)oc2cc(S(=O)(=O)N3CCOCC3)ccc21)c1ccccc1 | nt | nt | -2% | 3.6 | -4
CCCCNS(=O)(=O)c1ccc2nc(SCC(=O)N3CC(C)OC(C)C3)[nH]c2c1 (stereo unspecified) | -4 | -4 | -3% | -2.1 | -11
CCCc1[nH]nc2c1C1(CCOC1C)C(C#N)=C(N)O2 (stereo unspecified) | -32 | -3 | -6% | -2.7 | 12
NC(=O)COC(=O)c1ccc(Cl)c(S(=O)(=O)N(Cc2ccccc2)c2ccc(Cl)cc2)c1 | -42 | 15 | -2% | 17 | 2
NC(=O)c1ccc(N2CCN(c3ccc(O)cc3)CC2)c([N+](=O)[O-])c1 | nt | -3 | -5% | -2.6 | -3
O=C(Cc1cccs1)NCc1cccc(F)c1 | nt | 2 | -6% | 1.3 | 10
CC1C(=O)CC(c2ccccc2)NC1c1ccccc1 (stereo unspecified) | 3 | -1 | 6% | nt | -1
CCC(=O)Nc1cccc(-c2nc3ncccc3o2)c1C | nt | nt | nt | -3.1 | -7
O=c1[nH][nH]cc1C=NCc1cccnc1 | nt | 6 | -3% | -6.1 | -4
CCCn1c(N)c(C(=O)CSc2nc3ccccc3c(=O)n2Cc2ccccc2)c(=O)[nH]c1=O | nt | -35 | 11% | -4.2 | 1
Cc1cccc(NS(=O)(=O)c2csc(C(N)=O)c2)c1C | nt | nt | nt | 1.1 | -3
CCOC(=O)C1=C(C)C2C3C(=O)N(c4ccc(C)cc4C)C(=O)C3C1(C)C1C(=O)N(c3ccc(C)cc3C)C(=O)C21 (stereo unspecified) | -22 | -1 | 5% | -1.3 | -3
COc1ccc(C(=O)N/C(=C\c2cccs2)C(=O)N2CCN(C)CC2)cc1OC | nt | nt | nt | -1.0 | 1
CC(C)(C)n1nnnc1C(c1cccc(C#N)c1)N1CCN2CCCC2C1 (stereo unspecified) | -40 | 1 | -13% | 2.1 | -4
CCOc1ncccc1C(=O)OCc1c(Cl)cccc1Cl | -23 | -5 | -4% | 9.3 | 1
O=C(Nc1ccccc1-c1nc2ccccc2[nH]1)c1ccc(S(=O)(=O)N2CCCCC2)cc1 | -38 | -10 | 5% | 0.1 | nt
Cc1cc(C)c2nc(NC(=O)C3CC(=O)N(Cc4ccco4)C3)sc2c1 (stereo unspecified) | nt | -11 | 5% | 0.3 | 9
COc1ccccc1C(=O)NC(=S)NNC(=O)c1sc2ccccc2c1Cl | 24 | -7 | ? | 7.3 | 81
CCCOc1ccc(S(=O)(=O)Nc2ccccn2)c2ccccc12 | nt | nt | nt | 0.5 | -6
Cn1c(SCC(=O)Nc2ccccc2-c2ccccc2)nnc1-c1ccco1 | -41 | 2 | 1% | 2.6 | -4
CCn1cc(CN2CCC(C(=O)Nc3ccc(Oc4ccccc4F)cc3)CC2)c(C)n1 | nt | nt | nt | 5.9 | -10
COc1ccc(N(CC(=O)NC2CCCCC2)S(=O)(=O)c2c(C)[nH]c(=O)[nH]c2=O)cc1 | -41 | 0 | ? | -1.4 | -10
CC(C)CCNC(=O)COc1ccc2c(c1)C(=O)CC(C)(C)O2 | 11 | -2 | 4% | -6.3 | -9
COc1ccc(N(CC(=O)NCc2ccco2)C(=O)CNS(=O)(=O)c2ccc(Cl)cc2)cc1 | nt | nt | nt | 4.6 | 1
COc1ccc(CNC(=O)CCS(=O)(=O)c2cccc3nonc23)cc1 | -26 | 3 | -7% | nt | 72 | Arbovirus inh repeat=1
O=C(Cc1nnc(NC(=O)Nc2ccccc2)s1)NCc1ccccc1 | -31 | -4 | -4% | 0.0 | 3
O=C(CC1C(=O)NCCN1C(=O)c1ccc(Cl)cc1)Nc1ccc(F)cc1 (stereo unspecified) | nt | nt | nt | -1.2 | 2
S=C(Nc1ccccc1Cl)N(Cc1ccccc1)Cc1ccccn1 | nt | 5 | 6% | 15 | 0
Brc1ccc(C2Nc3cccc4cccc(c34)N2)o1 | -12 | -8 | -4% | 9.7 | 3 | Arbovirus inh repeat=-2
Cc1ccc(C)c(-c2ccc(=O)n(Cc3ccc(F)cc3Cl)n2)c1 | nt | nt | nt | 22 | 9
Cc1ccc(C(C)C)c(OCC(O)CN2CCc3ccccc3C2)c1 (stereo unspecified) | nt | nt | nt | -0.4 | 15
S=C(NCCc1ccc(Cl)cc1)NCc1ccccc1 | nt | nt | nt | 8.1 | -6
O=C(c1ccc(Cl)c(S(=O)(=O)N2CCOCC2)c1)N(c1ccccn1)C1CCCCC1 | nt | 9 | -3% | 1.2 | 3
N#Cc1c(Nc2ccccc2C(F)(F)F)s[nH]c1=O | nt | nt | -10% | 1.0 | -12
Cc1sc(N)c(C(=O)c2ccccc2)c1C | nt | 17 | -10% | -5.9 | 1
CN(C)S(=O)(=O)c1ccc(C(=O)NCC(=O)N/N=C/c2ccccc2Cl)cc1 | nt | 12 | 2% | -1.3 | -9
C=CCOc1ccc(-c2nc3c(c(=O)[nH]c(=O)n3CCCC)n2C)cc1Br | nt | nt | nt | 1.7 | 2

Next part
SMILES | YopH inh | Arbovirus inh | Mtb H37Rv | RecA intein inh | Mtb bLac sens | others
O=C1CC(N2CCSCC2)C(=O)N1c1ccccc1 (stereo unspecified) | nt | 3 | 1% | -0.8 | -14
COc1ccc(-c2csc(NC(=O)CSc3n[nH]c(C)n3)n2)cc1 | nt | nt | nt | 3.1 | 15
CCN(CC(=O)Nc1ccc(OC)cc1)CC(=O)Nc1ccc(Br)cc1F | nt | -9 | 0% | 2.9 | 19
O=C(Nc1ccccc1)c1ccc2c(c1)OCCO2 | -19 | -2 | 1% | 0.7 | 0

In the list so far, 9 have a furan ring, fused or not:
SMILES | YopH inh | Arbovirus inh | Mtb H37Rv | RecA intein inh | Mtb bLac sens | others
COc1ccc(C2=NN(C(=O)c3ccco3)C(c3cc4ccccc4nc3Cl)C2)cc1 (stereo unspecified) | nt | nt | 3% | -1.9 | 33
Cc1oc(CSCCSCc2cc(C(=O)O)c(C)o2)cc1C(=O)O | nt | nt | nt | 0.3 | 7
COC(=O)Cn1cc(C(=O)c2ccco2)c2ccccc21 | -51 | -1 | -2% | -3.3 | -10
CC(=C/c1ccco1)/C=N/NC(=O)Cc1cccn1C | 13 | 0 | -11% | 5.0 | 2
O=[N+]([O-])c1ccc(-c2ccc(/C=N/O)o2)cc1 | nt | nt | >100µM* | 3.6 | 87
Cc1cc(C)c2nc(NC(=O)C3CC(=O)N(Cc4ccco4)C3)sc2c1 (stereo unspecified) | nt | -11 | 5% | 0.3 | 9
Cn1c(SCC(=O)Nc2ccccc2-c2ccccc2)nnc1-c1ccco1 | -41 | 2 | 1% | 2.6 | -4
COc1ccc(N(CC(=O)NCc2ccco2)C(=O)CNS(=O)(=O)c2ccc(Cl)cc2)cc1 | nt | nt | nt | 4.6 | 1
Brc1ccc(C2Nc3cccc4cccc(c34)N2)o1 | -12 | -8 | -4% | 9.7 | 3 | Arbovirus inh repeat=-2

Source: PubChem

A portion of the library. The share of hits here may be higher or lower than overall.
